RORgamma inh – blocks mouse ROR gamma transcriptional activity | P51450 | Drosophila S2 Gal4-RORgamma UAS-luciferase reporter, 20 h | Potency, µM (doses to about 53.6 µM), without a hit: top-dose activity change, negative = inhibition, most hits filed as inhibitors | 310,000 tested, 5.4% active | AID 2551; also: potency is read from the fitted curve at half-maximal effect; % is scaled to controls: 0 for no effect and ±100 for the full control effect; nearly all actives have a fitted effect of over 60% in size
Target sequence (P51450 whole entry, looked up, the tested form may be a part): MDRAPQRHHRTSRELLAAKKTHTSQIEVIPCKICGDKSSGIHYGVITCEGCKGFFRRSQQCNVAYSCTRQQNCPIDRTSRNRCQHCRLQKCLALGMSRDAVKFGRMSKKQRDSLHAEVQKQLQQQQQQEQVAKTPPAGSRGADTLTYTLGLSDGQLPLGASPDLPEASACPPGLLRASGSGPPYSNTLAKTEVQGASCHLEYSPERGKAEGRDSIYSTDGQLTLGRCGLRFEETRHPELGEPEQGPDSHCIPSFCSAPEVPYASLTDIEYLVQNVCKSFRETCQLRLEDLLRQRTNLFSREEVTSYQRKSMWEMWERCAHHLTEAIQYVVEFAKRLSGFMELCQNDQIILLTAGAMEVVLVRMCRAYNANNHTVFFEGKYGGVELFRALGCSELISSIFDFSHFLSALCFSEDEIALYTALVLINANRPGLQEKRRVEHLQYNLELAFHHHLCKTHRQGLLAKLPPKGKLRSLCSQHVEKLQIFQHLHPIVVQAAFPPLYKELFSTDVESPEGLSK
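Stably transfected Drosophila Schneider cells are the test system, with ROR gamma fused to Gal4 and luciferase under UAS control; luminescence is read after 20 hr of 700 uM copper sulfate induction at ambient temperature.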
ELG1 repair inh – blocks ELG1-dependent DNA repair in HEK293T cells; HEK293T ELG1-luciferase reporter, luminescence, 16 h; DNA damage induced by 5-fluorouridine; Potency, µM (titrated, usually from 46.1 µM), for the others: at the top dose activity change, negative = inhibition, usual class: inhibitors; 330,000 tested, 2.3% active; AID 504467; also: potency is read from the fitted curve at half-maximal effect; % is scaled to controls: 0 for no effect and ±100 for the full control effect; nearly all actives have a fitted effect of over 55% in size
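HEK293T cells expressing luciferase-tagged ELG1 (2,000/well) received 5-Fluorouridine plus compound or DMSO for 16 hr at 37 °C. Luciferase was read by ONE-Glo luminescence after 30 min at room temperature.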
Rab9 promoter act – activators of Rab9 promoter | Huh7 Rab9 promoter-luciferase reporter, luminescence, 24 h | Potency, µM (titrated, usually from 9.22 µM), without a hit: at the top dose activation, negative = inhibition, hits mostly activators | 320,000 tested, 2.8% active | AID 485297; also: potency is read from the fitted curve at half-maximal effect; % of control where 0% means no effect; nearly all actives have a fitted effect of over 60% in size
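Luciferase signal after 10 min detection reagent at ambient indicates Rab9 promoter upregulation; stably transfected Huh7 cells were treated 24 h with compound in DMSO at 37 °C, 5% CO2.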
NPC1 promoter act – activates the NPC1 promoter. Huh7 NPC1 promoter luciferase reporter, 24 h. Potency, µM (series often up to 9.22 µM), for inactives: at the highest dose activation, most hits filed as activators. 320,000 tested, 2.4% active. AID 485313;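 also: potency is read from the fitted curve at half-maximal effect; % of control where 0% means no effect; nearly all actives have a fitted effect of over 60% in size; reporter is driven by a mutant NPC1 promoter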
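In 1536-well qHTS, Huh7 cells harboring an NPC1 promoter–luciferase construct received compound for 24 h; activation was quantified by luminescence following luciferase reagent addition.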
PKM2 activator – increases activity of human pyruvate kinase M2; P14618; purified PKM2, Kinase-Glo ATP luminescence, activation; response scale: 0% is enzyme alone, no compound; 260,000 tested, 0.34% active; Potency, µM (series often up to 57.5 µM), inactives show at the top dose activation, most hits filed as activators; also: potency is read from the fitted curve at half-maximal effect; % is scaled to controls: 0 for no effect and ±100 for the full control effect; nearly all actives have a fitted effect of over 55% in size
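hPK-M2, >95% pure; 0.1 mM ADP / 0.5 mM PEP final; imidazole pH7.2 buffer w/ 7 mM MgCl2, 50 mM KCl; 1 h RT; Kinase-Glo lum. Intermediate enzyme activity for dual inhibitor/activator qHTS.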
KCNH2 3.1 inh – inhibitors of human KCNH2 3.1 potassium channel isoform. 340,000 tested, 0.95% active. U2OS KCNH2 3.1, thallium flux FluxOr; stronger effect = lower value. AID 720553. activity change, % (tested at about 1.8 µM);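 active = maximum activity change below -70%; inconclusive = maximum activity change from -70% to -50%; inactive = maximum activity change above -50%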;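 also: thallium influx rate constant from kinetic fluorescence after stimulation buffer; % is scaled to controls: 0 for no effect and ±100 for the full control effect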
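Kinetic fluorescence (2 min after stimulation buffer) measures Tl+ influx through KCNH2 3.1 expressed by viral transduction in U2OS cells; the rate constant is normalized against DMSO controls serving as positive and negative references.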
FLuc counter – inhibits or activates purified firefly luciferase, miR-21 counter-screen. P08659. purified FLuc, Km substrates, luminescence inhibition. Potency, µM (doses to about 57.5 µM), for the others: at the highest dose activity change, negative = inhibition, most hits filed as inhibitors. 360,000 tested, 6.9% active;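 also: potency is read from the fitted curve at half-maximal effect; plate controls were vehicle for no effect and reference inhibitor for full effect; nearly all actives have a fitted effect of over 55% in size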
Target sequence (P08659 whole entry, looked up): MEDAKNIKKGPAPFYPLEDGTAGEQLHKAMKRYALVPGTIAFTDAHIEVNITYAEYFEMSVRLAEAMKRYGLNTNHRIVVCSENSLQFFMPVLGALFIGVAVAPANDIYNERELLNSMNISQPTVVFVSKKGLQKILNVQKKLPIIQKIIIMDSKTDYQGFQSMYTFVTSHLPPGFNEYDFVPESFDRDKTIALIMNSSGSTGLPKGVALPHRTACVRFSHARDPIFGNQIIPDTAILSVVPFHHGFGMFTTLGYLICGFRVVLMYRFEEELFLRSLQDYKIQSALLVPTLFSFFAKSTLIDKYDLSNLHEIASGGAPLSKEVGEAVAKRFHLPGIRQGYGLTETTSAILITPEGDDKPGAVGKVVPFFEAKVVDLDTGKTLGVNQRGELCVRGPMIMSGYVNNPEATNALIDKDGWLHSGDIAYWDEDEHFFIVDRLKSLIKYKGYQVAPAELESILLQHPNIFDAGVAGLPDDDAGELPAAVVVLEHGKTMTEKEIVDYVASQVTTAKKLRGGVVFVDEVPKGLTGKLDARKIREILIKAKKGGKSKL
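Biochemical qHTS of compounds, final roughly 60 µM downward over six points, against 10 nM purified firefly luciferase using Km concentrations of substrates (10 uM D-luciferin, 10 uM ATP) in Tris acetate pH 7.5 buffer; luminescence output.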
MBNL1 CUG block – blocks human MBNL1 binding to CUG repeat RNA. TR-FRET MBNL1-His/biotin-(CUG)12 binding, 665/545 ratio. Potency, µM (titrated, usually from 57.5 µM), for the others: top-dose activity change, negative = inhibition, actives largely listed as inhibitors. 280,000 tested, 0.036% active; active = well fitted inhibition curve with a large enough effect in the signal ratio, with a control signal flat, not every such curve was filed as active; inconclusive = small, poorly fitted or top-dose-only effect, or effect the other way, or a change in a side signal; inactive = no such curve, though single readings can be large or run the other way; the % refers to the signal ratio; also: potency is read from the fitted curve at half-maximal effect; % is scaled to controls: 0 for no effect and ±100 for the full control effect
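Compounds (final 92 nM to 58 uM) are added to His-tagged MBNL1 and biotin-(CUG)12, then terbium anti-His antibody and streptavidin-XL665 (5 nM final). After 60 min at room temperature, the 665/545 nm ratio is read.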
Gal4-VP16 FLuc – counter-screen for ROR gamma inhibitors: Gal4-VP16 reporter | Drosophila S2 Gal4-VP16 UAS-luciferase, luminescence, 20 h | Potency, µM (titrated, usually from 53.6 µM), for inactives: at the top dose activity, negative = inhibition, most hits filed as inhibitors | 310,000 tested, 3.5% active | AID 2546;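 also: Gal4-VP16 expression switched on by copper sulfate through the metallothionein promoter; potency is read from the fitted curve at half-maximal effect; % is scaled to controls: 0 for no effect and ±100 for the full control effect; nearly all actives have a fitted effect of over 50% in size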
Mito fusion yeast – inhibitors of mitochondrial division or activators of mitochondrial fusion | 320,000 tested, 0.23% active | Potency, µM (series often up to 46.1 µM), without a hit: top-dose growth rescue (activation), actives largely listed as activators | S. cerevisiae fusion-defective mutant growth rescue, CellTiterGlo 48 h;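 also: potency is read from the fitted curve at half-maximal effect; % of control where 0% means no effect; nearly all actives have a fitted effect of over 45% in size; temperature-sensitive fusion mutants such as fzo1-1 at 37 °C on non-fermentable ethanol glycerol medium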
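Read-out: ATP-based luminescence (CellTiterGlo, 10 min ambient) reporting growth of fusion-defective ts yeast after 48 hours at 37C on glycerol/ethanol YPEG medium in the presence of compound.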
The depositor's hits bear a star; u = inconclusive; x = not tested or not shown; & = joins results of further samples; [ ] = remark or other dose. Unless noted, calls follow the shape of the dose curve; as a rule, active = well fitted curve in the direction sought with a large enough effect; inconclusive = small, poorly fitted or top-dose-only effect, or another doubt; inactive = no such curve, though single readings can be large; an effect the other way counts as inactive or inconclusive. The list is partial; count on the stated rates, not on these rows.

SMILES	RORgamma inh	ELG1 repair inh	Rab9 promoter act	NPC1 promoter act	PKM2 activator	KCNH2 3.1 inh	FLuc counter	MBNL1 CUG block	Gal4-VP16 FLuc	Mito fusion yeast
CC(C)(C)NS(=O)(=O)c1ccc(CCC(=O)Nc2ccc3c(c2)OCCO3)cc1	36%	-1%	-2%	5%	1%	-4	-1%	-7%	-1%	-1%
CCc1cc(-c2[nH]ncc2-c2ccc3c(c2)OCO3)c(O)cc1O	-28%	u	0%	8%	-5%	10	u	-4%	-7%	6%
CCn1c(SCC(=O)N/N=C/C(C)=C/c2ccco2)nnc1-c1ccccc1	35%	-7%	2%	-2%	26%	-12	15µM*	8%	-4%	-2%
Cc1ccc(O)c(NC(=O)c2cc(-c3cccs3)on2)c1	-6%	u	-1%	18%	-9%	-10	2.1µM*	5%	u	8%
C/C(=N\NC(=O)c1ccccc1O)c1c(O)cc(C)oc1=O	0.89µM*	u	u	29%	-8%	-48	15µM*	9%	2.5µM*	-5%
O=C1c2ccccc2C(=O)N1CC(=O)N1c2ccccc2Sc2ccccc21	4%	u	-1%	2%	2%	3	-2%	-17%	-3%	7%
CCOC(=O)C1CCCN(c2nc3ccccc3nc2C(C#N)C(=O)NCc2ccccc2)C1 (stereo unspecified)	-7%	-29%	-3%	1%	3%	-47	6%	-7%	0%[0.365 µM]	6%
COc1ccc(Br)cc1/C=N/n1c(-c2ccccc2)n[nH]c1=S	u	8%	-5%	-8%	-1%	-8	3%	-8%	-20%	-1%
CC1CCCCC1NC(=O)CCCn1c(=S)[nH]c2ccsc2c1=O (stereo unspecified)	18µM*	10%	-3%	2%	x	14	0%	-2%	u	-11%
CC(NC(=O)COC(=O)CCc1ccccc1)c1ccccc1 (stereo unspecified)	-10%	u	-4%	-1%	-7%	-2	1%	-5%	-10%	-1%

An excerpt from above in order of formula weight, high to low:
SMILES	RORgamma inh	ELG1 repair inh	Rab9 promoter act	NPC1 promoter act	PKM2 activator	KCNH2 3.1 inh	FLuc counter	MBNL1 CUG block	Gal4-VP16 FLuc	Mito fusion yeast
CCOC(=O)C1CCCN(c2nc3ccccc3nc2C(C#N)C(=O)NCc2ccccc2)C1 (stereo unspecified)	-7%	-29%	-3%	1%	3%	-47	6%	-7%	0%[0.365 µM]	6%
C/C(=N\NC(=O)c1ccccc1O)c1c(O)cc(C)oc1=O	0.89µM*	u	u	29%	-8%	-48	15µM*	9%	2.5µM*	-5%
Cc1ccc(O)c(NC(=O)c2cc(-c3cccs3)on2)c1	-6%	u	-1%	18%	-9%	-10	2.1µM*	5%	u	8%

Later entries
SMILES	RORgamma inh	ELG1 repair inh	Rab9 promoter act	NPC1 promoter act	PKM2 activator	KCNH2 3.1 inh	FLuc counter	MBNL1 CUG block	Gal4-VP16 FLuc	Mito fusion yeast
COc1cccc(CN(C)CC(=O)NCc2ccc(F)cc2)c1OC	-3%	u	13%	-4%	x	9	1%	-9%	-15%	-9%
COC(=O)CN1C(=O)[C@H]2[C@@H](c3ccc(C)o3)N3C(=O)CN(CCO)C(=O)[C@@]3(C)[C@H]2C1=O	10%	u	1%	-2%	1%	x	-4%	-3%	2%	2%
COc1ccc(CNCCC(c2ccccc2)c2ccc(OC(C)C)cc2)cc1OC (stereo unspecified)	-30%	u	1%[1.84 µM]	-5%	x	u	-1%	-3%	-7%	-30%
COC(=O)c1c(NC(=O)CSc2nc(-c3ccco3)cc(C(F)(F)F)n2)sc2c1CCCC2	-7%	16%	-2%	-4%	-15%	14	4%[2.3 µM]	-8%	2%	0%
Cc1ccc(OCCn2c(C3CC(=O)N(Cc4ccccc4)C3)nc3ccccc32)cc1 (stereo unspecified)	u	15µM*	2%	-10%	-3%	9	0%	3%	u	18%
CCN(C(=O)CSc1nnc(NCc2ccccc2)s1)C1CCS(=O)(=O)C1 (stereo unspecified)	1%	9%	-2%	-1%	-4%	-22	u	-3%	-3%	-12%
COc1cc2c(cc1OC)CN(C(=O)Cc1ccccc1)CC2	21%	1%	16%	u	x	14	0%	-16%	-5%	4%
CCOC(=O)c1ccc(NC(=O)COc2ccc(S(=O)(=O)NC(C)(C)C)cc2)cc1	33%	11%	-15%	-2%	6%	-9	0%	-6%	1%	-1%
O=c1c(Cc2ccc(Cl)cc2Cl)c(O)ccn1Cc1ccc(Cl)cc1	-17%	u	-4%	3%	-13%	-5	-4%	-1%	-1%[0.365 µM]	4%
NC(=O)COc1ccc(C(=O)/C=C2/C(=O)Nc3ccccc32)cc1	7.9µM*	-3%	-5%	3%	x	4	11µM*	2%	u	-6%
OC(CN1CCc2ccccc2C1)c1ccccc1 (stereo unspecified)	8%	1%	-1%	1%	10%	3	0%	2%	-13%	1%
CN(C)CCCNc1cc(Cl)c(S(=O)(=O)N2CCCCC2)cc1C(=O)O	14%	7%	6%	0%	-3%	4	2%	-15%	-10%	0%
Cc1[nH]c(=O)[nH]c(=O)c1Cc1cccc2ccccc12	15%	-9%	0%	-1%	8%	-6	-3%	2%	21%	-3%
C=CCOc1ccc(C(=O)/C=C2/C(=O)Nc3ccccc32)cc1	u	-4%	-2%	-4%	x	-7	1.5µM*	-5%	-17%	u
Cc1cc(C)cc(NC(=O)Cn2nnc(C(=O)NCc3ccco3)c2N)c1	-1%	5%	-4%	-9%	x	1	0%&7%	-1%	6%	-8%
O=C(Nc1ccc(Cl)cc1)Nc1nnc(-c2ccncc2)s1	20%[10 µM]	3.7µM*	-33%[inhibitor]	-18%	-13%	7	-17%	x	2%	1%
CCOC(=O)N1CCN(C(=O)c2cc(Cl)c(Cl)cc2C(=O)O)CC1	-22%	18%	4%	0%	0%	-3	0%	-4%	0%	0%
CCN1C(=O)N/C(=C/c2ccc(C)o2)C1=O	u	18%	4%	-5%	u	-11	-2%	16%	u	-1%
CCCCn1ccc(=O)c2c(C(F)(F)F)nccc21	40%	x	x	x	4%	x	2%	7%	-15%	3%
COc1ccccc1CN1CCN(C(CC(C)C)c2nnnn2Cc2cccs2)CC1 (stereo unspecified)	80%	-12%	-3%	1%	-19%	u	-4%	-15%	-6%	-11%
Cc1ccccc1C1NC(=S)NC2=C1C(=O)CC(C)(C)C2 (stereo unspecified)	-43%	u	0%	1%	-1%	-7	-1%	4%	-7%	8%
CCOC(=O)c1cc(C#N)c(N2CCOCC2)nc1-c1ccccc1	4%	u	-5%	-4%	-21%	-9	0%	11%	-1%	10%
COc1ccc(/C=C2/S/C(=N/N=C3\CC4CCC3(C)C4(C)C)NC2=O)cc1 (stereo unspecified)	10µM*	-23%	-3%	-2%	-1%	-2	u	5%	u	-4%
O=C(NCCSc1ccccc1)c1cncc(Br)c1	20%	u	u	u	-4%	10	21µM*	-6%	-4%	3%
O=C1CCCC(O)=C1C=Nc1cccc(C(F)(F)F)c1	-6%	5%	11%	-1%	4%	-7	1%	5%	5%	3%
C=CC[C@@H]1Cc2c(Br)ccc(Br)c2[C@@H](CC=C)N1	-41%	-10%	-2%	9%	-10%	5	-1%	2%	-13%	-1%
O=c1[nH]ncc(N/N=C/c2ccccc2)c1Cl	19%	u	-8%	-1%	-4%	-1	2%	9%	19%	0%
Cc1ccccc1NC(=O)C1CC(Cl)=CCC1C(=O)O (stereo unspecified)	-5%	-1%	1%	-13%	7%	17	9%	-8%	-5%	-3%
Fc1ccc(NC(=S)N2CCCc3ccccc32)cc1	-2%	16%	6%	-1%	0%	0	-5%	7%	-11%	-3%
COc1ccccc1-n1c(C)cc(SC)c(C(C)=O)c1=S	-5%	2%	1%	-1%	0%	-1	-1%	0%	5%	0%
C/C=C/C=C/C(=O)OCC(=O)Nc1ccc(Cl)cc1	-6%	3%	3%	1%	4%	4	4%	x	-2%	0%
CCc1ccc(NC(=O)Cn2nnc(C(=O)NCc3cccs3)c2N)cc1	5%	-3%	-1%	1%	-2%	0	-1%	-5%	-1%	0%
COc1cccc(OC)c1OCCOCCn1cnc2ccccc2c1=O	10%	-27%	6%	-4%	1%	1	6%	2%	-8%	1%
O=C(NNC(=O)c1cc(-c2ccc(Cl)cc2Cl)nc2ccccc12)Nc1ccccc1	u	u	-4%	-6%	-10%	17	6.7µM*	4%	0%	-2%
C/C(=N\NC(=O)c1cccnc1)c1c(O)cc(C)oc1=O	-44%	18%	0%	-1%	0%	-2	u	x	2%	0%
O=C(Cc1ccccc1)NCC(=O)OCC(=O)c1ccc(OC(=O)c2ccccc2)cc1	2%	14%	-2%	0%	-6%	14	-1%	-3%	-13%	-2%
CC(NS(=O)(=O)c1ccc([N+](=O)[O-])cc1)C(=O)NN (stereo unspecified)	0%	5%	-2%	-13%	-2%	33	-1%	u	11%	1%
N#Cc1cn(CC(=O)N2CCCC2)c2ccccc12	-24%	4%	-7%	-1%	2%	-20	3%	5%	-2%	-1%
